# Screening results deposited in PubChem by National Center for Advancing Translational Sciences (NCATS).
# VDR inhibitor: Inhibitors of the vitamin D receptor (VDR): qHTS; VDR-SRC2-3 peptide fluorescence polarization, 2 h; Potency, µM, inactives show max response, negative = inhibition, most hits filed as inhibitors; hit rate 0.93% among 400,000; active means well fitted inhibition curve with a large enough effect; inconclusive means small, poorly fitted or top-dose-only effect, or another doubt; inactive means no such curve, though single readings can be large or run the other way; further: series mostly up to about 120 µM
# Target sequence (P11473 whole entry, looked up): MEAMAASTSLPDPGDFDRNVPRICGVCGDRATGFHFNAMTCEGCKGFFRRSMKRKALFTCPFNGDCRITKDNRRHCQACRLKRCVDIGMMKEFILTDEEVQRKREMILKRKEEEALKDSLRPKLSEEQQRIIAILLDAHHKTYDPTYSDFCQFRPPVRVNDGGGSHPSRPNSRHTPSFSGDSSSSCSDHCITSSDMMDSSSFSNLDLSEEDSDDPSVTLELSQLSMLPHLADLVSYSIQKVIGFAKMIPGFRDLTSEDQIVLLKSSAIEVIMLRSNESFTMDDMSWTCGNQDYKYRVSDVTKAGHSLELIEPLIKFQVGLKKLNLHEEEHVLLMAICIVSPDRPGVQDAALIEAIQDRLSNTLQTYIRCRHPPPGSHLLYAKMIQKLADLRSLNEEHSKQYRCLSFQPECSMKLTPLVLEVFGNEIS
#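 Two reagent solutions held at 4 deg C in the dark were dispensed, compounds pinned at 23 nl, and the mixture incubated 2 h at room temperature. Read-out: fluorescence polarization of VDR–SRC2-3 peptide binding.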
# Numbers without * were called inactive; ? = inconclusive; & = joins results of further samples. On the % scale 0 is the no-effect control and ±100 the full control effect; potency means the concentration at half of the fitted maximal effect.
compound | VDR inhibitor
Cc1cc(C(F)(F)F)c2c(n1)sc1c(O)cc(=O)[nH]c12 | 8%
CCC(C)Sc1ccc([C@H]2N[C@@](CC(C)C)(C(=O)OC)[C@H]3C(=O)N(CC)C(=O)[C@@H]23)cc1 (some centres undefined) | -11%
Cc1cc(=O)oc2cc(OCC(=O)NCCc3c[nH]c4ccc(F)cc34)ccc12 | -8%
O=C(N/C(=C/c1ccco1)C(=O)N1CCc2ccccc21)c1ccco1 | -9%
NN/C(=C\[N+](=O)[O-])Nc1ccc(Cl)cc1 | -6%
CN(C)c1cccc(C(=O)Nc2ccc(N3CCOCC3)cc2)c1 | 3%
CCOC(=O)C1(Cc2ccccc2C)CCCN(C(=O)CN2CCCCC2=O)C1 (centres undefined) | 5%
CC(=O)OC(C)[C@H]1CC[C@H]2[C@@H]3CC[C@H]4C[C@@H](OC(C)=O)CC[C@]4(C)C3=CC[C@]12C (some centres undefined) | -7%
COc1cccc(OC)c1C(=O)Nc1ccc2c(c1)N(C(C)=O)CCC2 | 1%
COc1ccc(OC)c(Nc2ncnc3c2cnn3-c2ccc(C)cc2)c1 | 11%

# Going on with the list.
compound | VDR inhibitor
COc1ccc(OCC(=O)Nc2cccc(-c3nc4ccccc4o3)c2)cc1 | 23%
O=C(COC(=O)[C@H](Cc1ccccc1)NC(=O)c1ccco1)Nc1ccccc1 | 7%
O=C(c1cc(-c2ccccc2)on1)N1CCCC1 | -10%
Cc1c(Cl)cccc1NC(=O)CN1C(=O)CCn2nc(-c3cccn3C)cc21 | 19%
COCCNC(=O)c1onc(CSc2ccc(F)c(F)c2)c1C(=O)NCCOC | 4%
CCCOc1ccc(NC(=O)CC2C(=O)N(c3ccccc3)C(=O)N2CCC(C)C)cc1 (centres undefined) | -3%
O=S(=O)(NC(CO)Cc1ccccc1)c1ccc(Br)cc1F (centres undefined) | 9%
O=C(CCC1CCCC1)N1CCN(S(=O)(=O)Cc2ccccc2)CC1 | 9%
CC1CCN(C(=O)c2ccc3c(=O)n4c(nc3c2)CCCCC4)CC1 | -9%
CCCc1cc(=O)[nH]c2nnc(SCC(=O)NC3CCCCC3)n12 | -4%

# (listing goes on)
compound | VDR inhibitor
CCOc1ccccc1-n1c(=S)sc2c(=O)n(-c3ccccc3)c(=S)[nH]c21 | -28%
CC1(CC(=O)O)C(=O)N=C2C=CC=CN21 (centres undefined) | 0%
CN(C)CC(C(=O)c1ccccc1)c1ccccc1 (centres undefined) | 50µM*
COC(=O)c1ccc(OCC(O)CN2CCc3cc(OC)c(OC)cc3C2c2ccccc2)cc1 (centres undefined) | 2%
Nc1cccc(-c2cc(-c3ccccc3)nc(-c3cccc(N)c3)n2)c1 | -12%
COc1ccc(COC(=O)C2=C(C)NC(=O)NC2c2ccc(F)cc2)cc1 (centres undefined) | -24%
COc1ccc(CCNC(=O)C2CCN(c3nccc(C)n3)CC2)cc1 | 2%
Oc1cccc(C2c3[nH]c4ccccc4c3CCN2Cc2ccoc2)c1 (centres undefined) | -18%
CCCCn1c(CN2CCOCC2)nc2c1c(=O)n(C)c(=O)n2C | -26%
Clc1ccc(/C=C/c2ncc[nH]2)c(Cl)c1 | 23%

# More records follow:
compound | VDR inhibitor
CCNC(=S)NNC(=O)c1cc(-c2ccccc2C)nc2ccccc12 | -7%
Nc1ccc2nc(-c3cc(Cl)c(N)c(Cl)c3)[nH]c2c1 | ?
Cc1ccc(-c2nnn(CC(=O)N(c3cccc(O)c3)C(C(=O)NC(C)(C)C)c3cccs3)n2)o1 (centres undefined) | -1%
Cc1ccc(NC(=O)c2cc3c(-c4ccccc4)nn(-c4ccccc4)c3s2)cc1 | 17%
CC(C)(C)S(=O)N1Cc2ccc(CO)cc2[C@H]1CCO (some centres undefined) | -7%
Cc1csc(Nc2ccc(Cl)cc2)[n+]1-c1ccc(Cl)cc1 | -14%
O=S(=O)(Nc1ccc2oc3c(c2c1)CCCC3)c1cc(Cl)ccc1Cl | -16%
CCOC(=O)C1=C(CN2CCCCC2)NC(=O)NC1c1ccc(C)cc1 (centres undefined) | 0%
CCC(Oc1ccccc1)C(=O)Nc1cc(-c2ccccc2F)nn1-c1ccccc1 (centres undefined) | 7%
N#CC1=C2SCN(c3ccccc3)CN2C(=O)CC1c1cccs1 (centres undefined) | ?

# Continued:
compound | VDR inhibitor
COC(=O)c1cn(NC(=O)c2cccc(N(C)C)c2)c(=O)c2ccccc12 | -17%
O=C(NCCCN1CCOCC1)c1cc(-c2ccccc2)on1 | -24%
O=c1cc(-c2ccccc2Cl)oc2ccc([N+](=O)[O-])c(O)c12 | -9%&7%
Oc1cc(O)cc(/C=C/c2ccc(O)c(O)c2)c1 | -13%&-7%&11%&-13%&0%
Cc1[nH]c2ccc(F)cc2c1CCN(Cc1cccnc1)C(=S)Nc1cccc(F)c1 | 17%
COc1ccccc1-c1cc(C(=O)N2CCCCC2)no1 | -3%
COc1cc(/C=C(\C#N)C(=O)NCC2CCCO2)ccc1OCCC(C)C (centres undefined) | -19%
COc1ccccc1NC(=O)CSc1nnc(CNC(=O)c2ccco2)o1 | -4%
O=C(CCN1CCOCC1)Nc1cccc(Br)c1 | 16%
CCOC(=O)c1cc(-c2cccnc2)nn1-c1ccccn1 | 2%

# Further results:
compound | VDR inhibitor
Cc1nn(CC(=O)O)c(=O)c2cc3cc(F)ccc3n12 | 3%
CCOC(=O)c1noc2ncn(CC(=O)Nc3ccccc3OC)c(=O)c12 | 12%
Cc1ccc(OCC(=O)NC(=S)Nc2cccc(NC(=O)c3ccccc3Cl)c2)cc1 | 1%
O=C(COc1ccc(Br)cc1CO)Nc1ccccc1F | 1%
Cc1ccc(N(CC(=O)Nc2cccc(F)c2)S(=O)(=O)c2cccs2)cc1 | -8%
CC(C)(C)c1ccc(O)c(N=Cc2cc3c(cc2[N+](=O)[O-])OCO3)c1 | ?
CCCCNC(=O)c1c(CSc2ccc(Cl)cc2)noc1C(=O)NCc1ccccc1 | -10%
CCCC(=NC(C)CC)C1=C(O)CC(c2ccccc2)CC1=O (centres undefined) | -19%
COc1cccc(-c2nc(CS(=O)(=O)CC(=O)NCCCN3C(C)CCCC3C)c(C)o2)c1 (centres undefined) | -16%
O=C(Nc1nc2ccc(Cl)cc2s1)c1cccc(N2C(=O)CCC2=O)c1 | -19%

# (listing goes on)
compound | VDR inhibitor
Cc1c(NS(=O)(=O)c2cc(C(=O)N3CCCC(C)C3)ccc2Cl)c(=O)n(-c2ccccc2)n1C (centres undefined) | -2%
S=C(Nc1ccccc1)Nc1ccc2cn[nH]c2c1 | -11%
CCC(O)CNc1nc(SC)nc2sc3c(c12)CCN(C)C3 (centres undefined) | 8%
Cc1ccc(C(=O)O)cc1N1CCCC1=O | -13%
O=S(=O)(c1ccc(Br)cc1)c1cnc2ccccc2n1 | -8%
Cc1ccccc1NC(=O)NC(N)=O | -14%
O=C(Nc1cc(Cl)ccc1Cl)N1CCN(C(=O)Nc2cc(Cl)ccc2Cl)CC1 | 12%
Cc1c(C)c2c(OCC(=O)NCc3cccnc3)cc3c(c2oc1=O)CCC(C)(C)O3 | -16%
COC(=O)c1cccc(CSC(=S)N2CCCC2)c1 | 10%
Cc1ccc(SCC(=O)N/N=C/c2ccco2)cc1 | -22%

# (further entries)
compound | VDR inhibitor
CN(Cc1ccccc1)C(=O)C1CCN(S(C)(=O)=O)CC1 | -3%
CN(C(=O)COC(=O)c1cccc(NS(=O)(=O)c2ccc(F)c(F)c2)c1)C1CCS(=O)(=O)C1 (centres undefined) | -18%
NC(=O)c1ccccc1NC(=O)N1CCOCC1 | 0%
Cc1nnc(SCC(=O)N2CC(=O)Nc3ccccc32)n1-c1ccccc1 | -12%
COc1ccc(Cl)cc1N1C(=O)/C(=C\c2sccc2C)N=C1SCC(=O)NC1CC1 | -16%
CCN1CCN(c2cc(C)c3cc(NC(=O)CCC(=O)Nc4ccc(OC)c(OC)c4)ccc3n2)CC1 | 5%
Cc1ccc(N/N=C/c2c(C)c(C#N)c(=O)n(C)c2O)cc1C | ?
COc1cc(CN2CCC(Oc3cc(C(=O)NC4CC4)ccc3OC)CC2)cc(OC)c1 | 5%
COC(=O)[C@@H]1C[C@@]2(O)[C@@H](O)[C@@H](O)[C@@H](O)C[C@H]2N1CC1CCCCC1 | -19%
CC(C)(C)NC(=O)CSc1nc2cc(S(=O)(=O)N3CCCCC3)ccc2o1 | -36%

# Part of the list above, with each value named.
> COC(=O)[C@@H]1C[C@@]2(O)[C@@H](O)[C@@H](O)[C@@H](O)C[C@H]2N1CC1CCCCC1
  VDR inhibitor = -19%

> Cc1ccc(N/N=C/c2c(C)c(C#N)c(=O)n(C)c2O)cc1C
  VDR inhibitor = ?

> COc1cc(CN2CCC(Oc3cc(C(=O)NC4CC4)ccc3OC)CC2)cc(OC)c1
  VDR inhibitor = 5%

> CN(C(=O)COC(=O)c1cccc(NS(=O)(=O)c2ccc(F)c(F)c2)c1)C1CCS(=O)(=O)C1 (centres undefined)
  VDR inhibitor = -18%

# Additional results follow:
compound | VDR inhibitor
CO/C=C\C=C/c1nnn(-c2ccc(Cl)cc2)n1 | ?
N#C/C(=C\c1cccc(F)c1)c1nc(-c2cc3ccccc3oc2=O)cs1 | -16%
COC(=O)c1ccc(NC(=O)C2CCN(C(=O)c3cc(OC)c(OC)c(OC)c3)CC2)cc1 | 4%
CCCN(CCC)S(=O)(=O)c1ccc(C(=O)Nc2nc(-c3ccccc3)c(C(=O)OCC)s2)cc1 | -14%
CCCN1C(=O)/C(=C/c2ccc(N3CCCC3)c(C)c2)NC1=S | 18%
COc1cccc(C(=O)Nc2ccc(F)cc2F)c1 | 17%
Cc1cccc(NC(=S)NNc2cccc(Cl)c2)c1 | 28µM*
CCc1ccc(-n2c(SCC(=O)Nc3ccc(C(=O)O)cc3)nnc2-c2ccncc2)cc1 | -5%
COCCNc1cc(-c2c(C)noc2C)ncn1 | -10%
COc1cc(/C=N/NC(=O)Cn2nnc3ccccc32)ccc1O | -3%

# (more compounds)
compound | VDR inhibitor
Cc1ccc(C)c(-n2c(-c3ccco3)n[nH]c2=S)c1 | -18%
Nc1ccc2nc3c(=O)n(CCc4ccccc4)c(=O)[nH]c3nc2c1 | -3%
CCOC(=O)c1sc(NC(=O)C2CC2)cc1C | 1%
O=C(N=C1SC2CS(=O)(=O)CC2N1c1ccc(Br)cc1)C1CCCO1 (centres undefined) | -26%
COc1cc(-c2cc(OC)c3c(C)oc(C)c3c(=O)c2)ccc1OC(=O)c1cccc(Cl)c1 | 8%
Cc1ccccc1-c1nn2c(=O)cc(CN3CCN(C(=O)/C=C/c4ccccc4)CC3)nc2s1 | 10%
CCN1CCN(C(CNC(=O)c2ccc3c(c2)OCO3)c2cccnc2)CC1 (centres undefined) | -13%
Cc1cccc(C)c1NC(=O)c1cc(-c2ccccn2)nc2ccccc12 | 1%
O=C(NN=C1CCCC1)c1cc(Cl)cc(Cl)c1O | -2%
CC1CCc2sc(C(=O)NCc3ccc(F)cc3)cc2C1 (centres undefined) | -5%

# The results go on:
compound | VDR inhibitor
CCCNc1nc2ccccc2c(=O)[nH]1 | 4%
COc1cc(C(=S)N2CCOCC2)cc(OC)c1OC | ?
O=C(NCCCn1ccnc1)/C(=C\c1cccnc1)NC(=O)c1ccco1 | 27%
CCOc1ccc(/C=N/NC(=O)c2[nH]c3ccc(C)cc3c2C)cc1 | 18%
COC(=O)CSc1nc2sc3c(c2c(=O)n1-c1ccccc1)CCN(C)C3 | 12%
OCCOCCNc1ncnc2c1c(-c1ccccc1)cn2-c1ccccc1 | 12%
CCSC1(SCC)N=C(N)C2(C#N)C(c3ccccc3)NC3=C(CCC3)C12C#N (centres undefined) | -1%
CC(C)CCn1c(SCc2ccc(Cl)cc2)nc2c1c(=O)[nH]c(=O)n2C | ?
COn1c(=O)c(-c2cccs2)[n+]([O-])c2ccccc21 | 0%
Cc1cccc(C)c1NC(=O)COC(=O)CCC(=O)c1cccs1 | -4%

# Five compounds from above, ordered by molar mass, descending.
compound | VDR inhibitor
CCSC1(SCC)N=C(N)C2(C#N)C(c3ccccc3)NC3=C(CCC3)C12C#N (centres undefined) | -1%
COC(=O)CSc1nc2sc3c(c2c(=O)n1-c1ccccc1)CCN(C)C3 | 12%
Cc1cccc(C)c1NC(=O)COC(=O)CCC(=O)c1cccs1 | -4%
CCOc1ccc(/C=N/NC(=O)c2[nH]c3ccc(C)cc3c2C)cc1 | 18%
CCCNc1nc2ccccc2c(=O)[nH]1 | 4%

# Continuation:
compound | VDR inhibitor
COc1ccc(OC)c(S(=O)(=O)NCc2ccccc2)c1 | -18%
NCCC(=O)N1c2ccccc2Sc2ccc(Cl)cc21 | 2%
CCC(C(=O)O)n1c2ccccc2c2cn[nH]c(=O)c21 (centres undefined) | -13%
COc1ccc(C(=O)OCC(=O)NCc2ccccc2)c(OC)c1OC | -8%
CCN(CC(=O)Nc1c(F)cccc1F)C(=O)CSCC(=O)Nc1cc(C)on1 | 1%
C=CCC[C@@H](Cc1ccc(F)cc1)C(=O)OC[C@@H](Cc1c[nH]c2ccccc12)NC(=O)[C@@H](CC=C)CC(=O)N[C@@H](CO)Cc1ccccc1 | -26%
O=C(Nc1c(C(=O)O)oc2ccc(Br)cc12)c1ccccc1 | 3%
CCOc1ncccc1C(=O)Nc1ccccc1C(=O)NCc1ccc2c(c1)OCO2 | -10%
CN(CC(=O)Nc1ccccc1Br)C(=O)COc1cccc2c1OC(C)(C)C2 | 2%
CC(C)C[C@H](NC(=O)NCc1ccc(F)cc1)C(=O)O | 15%
CCCCS/C(=C(/C#N)C(N)=O)c1cc2c([nH]1)CCCC2 | -11%
O=C(Nc1ccc(C(=O)N2CCCCC2)cc1)c1ccc([N+](=O)[O-])cc1 | -4%
Cc1nn(-c2ccccc2)c(N2CCCC2)c1/C=N/NC(=O)c1cc2ccccc2cc1O | -11%

# Some of the compounds tested; count on the stated rates, not on these rows.
